High-throughput results deposited in PubChem BioAssay by National Center for Advancing Translational Sciences (NCATS).
Rango-impB inh – Rango-importin beta binding inhibition | Q14974 | Potency, µM (doses to about 92.2 µM), for the others: at the highest dose inhibition of complex formation | actives 0.031% (n = 340,000) | AID 540263 | Rango CFP/YFP FRET sensor + importin beta, 45 min; active = rising FRET ratio curve, often small or poorly fitted; inconclusive = mostly compound fluorescence or quenching in the first reads; inactive = flat curves in all reads;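 note: potency is the fitted concentration of half-maximal effect; 0% = DMSO wells and 100% = buffer wells lacking importin beta; nearly all actives have a fitted effect of over 15% in size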
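Inhibition scored from the CFP 486 nm/YFP 530 nm FRET ratio 45 min after adding 0.125 microM importin beta to 50 nM Rango biosensor preincubated 5 min with compound (room temperature, PBS with DTT, Tween-20, BSA). No-importin wells as positive control.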
Rango dissoc inh – inhibition of RanGTP-driven Rango-importin beta dissociation; Potency, µM (series often up to 46.1 µM), without a hit: top-dose activity change, negative = inhibition; Biochemical FRET Rango-importin beta, RanGTP-induced dissociation; actives 0.071% (n = 340,000); active means falling FRET ratio curve, often poorly fitted, with flat reads before Ran was added; inconclusive means other falling curves, or compound fluorescence or quenching; inactive means flat or rising ratio curve;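 note: potency is the fitted concentration of half-maximal effect; % of control where 0% means no effect; nearly all actives have a fitted effect of over 45% in size; -100% = wells without RanGTP and RCC1; the record marks most hits as doubtful in a second field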
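Recombinant Rango FRET biosensor (EYFP–snurportin 1 IBB–cerulean CFP10) at 0.1 uM premixed with 0.25 uM importin beta in PBS, 1 mM DTT, 0.02% Tween-20, 0.1% BSA. Compound added 5 min; RanGTP-RCC1 (0.6 uM Ran, 2 mM GTP, 0.2 uM RCC1) then triggers release, read at 45 min.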
GLA inh pH 4.5 – alpha-galactosidase A (human) inhibition, pH 4.5; purified enzyme, 4-MU-alpha-Gal fluorescence, pH 4.5; activity change, negative = inhibition, % at 105 µM; 230,000 tested, under 10 active; AID 1467; inconclusive = small, poorly fitted or top-dose-only inhibition, or a rising curve; inactive = flat fitted curve, though single readings scatter; no compound was filed as active;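 note: 0% = full activity with enzyme and -100% = basal without enzyme; dose as in the result columns while the protocol names 77 µM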
Target sequence (P06280 whole entry, looked up): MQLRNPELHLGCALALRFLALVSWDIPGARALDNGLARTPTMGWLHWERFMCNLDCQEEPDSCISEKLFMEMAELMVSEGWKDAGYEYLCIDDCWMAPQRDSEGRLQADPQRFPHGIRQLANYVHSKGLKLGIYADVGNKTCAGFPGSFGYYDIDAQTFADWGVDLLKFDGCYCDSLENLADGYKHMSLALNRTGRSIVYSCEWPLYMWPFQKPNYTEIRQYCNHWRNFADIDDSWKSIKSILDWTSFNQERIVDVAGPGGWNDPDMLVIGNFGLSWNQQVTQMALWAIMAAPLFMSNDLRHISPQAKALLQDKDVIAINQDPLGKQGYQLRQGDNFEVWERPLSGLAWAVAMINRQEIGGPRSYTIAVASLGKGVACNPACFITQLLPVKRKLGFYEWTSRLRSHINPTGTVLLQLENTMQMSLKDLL
miR-21 FLuc – raises the signal of a miR-21 reporter; HeLa miR-21 FLuc reporter, luciferase, 48 h; Potency, µM (titrated, usually from 38.3 µM), inactives show top-dose reporter change, positive = more light; 340,000 tested, under 10 active; AID 2288; active = well fitted rising curve with a large enough effect; inconclusive = small, poorly fitted or top-dose-only effect; inactive = no such curve, though single readings can be large or run the other way;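 note: % of control where 0% means no effect; miR-21 action dims this reporter so a rising signal means less miR-21 action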
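Using DMEM plus 10% FBS, HeLa miR-21-FLuc cells are incubated with test compounds (final up to about 40uM) for 48 hours; firefly luciferase signal is then imaged following reagent-mediated lysis.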
The depositor's hits bear a star; u = inconclusive; x = not tested or not shown; & = joins results of further samples; [ ] = remark or other dose. Some of the compounds tested; the hit share may differ from the screen's.

A first look, two compounds:
Molecule,Rango-impB inh,Rango dissoc inh,GLA inh pH 4.5,miR-21 FLuc
Cc1c(Cl)ccc2c(C(O)CBr)cc(-c3ccccc3)nc12 (stereo not given),0.8%,-6%,x,x
COc1ccc(CCN2C(=O)C(Oc3ccccc3C)C2c2ccc3c(c2)OCO3)cc1OC (stereo not given),-2.3%,25%,-20,17%

The whole of this part, from the start:
Molecule,Rango-impB inh,Rango dissoc inh,GLA inh pH 4.5,miR-21 FLuc
Cc1c(Cl)ccc2c(C(O)CBr)cc(-c3ccccc3)nc12 (stereo not given),0.8%,-6%,x,x
COc1ccc(CCN2C(=O)C(Oc3ccccc3C)C2c2ccc3c(c2)OCO3)cc1OC (stereo not given),-2.3%,25%,-20,17%
Cc1cccc(C(=O)OCC(=O)NN2C(=O)NC3(CCC(C)CC3)C2=O)c1O (stereo not given),-2.1%,-11%,x,x
COc1ccc2c(C)nc(Nc3nc(-c4ccccc4)cc(=O)[nH]3)nc2c1,-2.0%,-10%,-3,0%
CCc1ccc(/C=C2/Sc3ccccc3N(CC(=O)NCC3CCCO3)C2=O)cc1 (stereo not given),u,5%,x,4%
O=C(CNC(=O)c1ccco1)NCC(=O)OCc1ccccc1Br,2.6%,20%,1,-8%
Cc1ccc(-n2[nH]c(C)c(C=NCc3ccncc3)c2=O)cc1,-0.7%,-10%,4,-26%
CC(C)CCNC(=O)C(=O)NCc1ccccc1,0.2%,-5%,5,-1%
CCOC(=O)C1CCN(C(=O)C2CCCCC2)CC1,6.8%,0%,-4,1%
Cc1nc(CCNC(=O)CC2C(=O)NCCN2Cc2ccccc2)nc2c1CCC2 (stereo not given),u,-11%,x,-4%
O=C(Nc1cccc(C(F)(F)F)c1)c1cccnn1,2.9%,-3%,x,-8%
Cn1c(-c2ccccc2)c(C(=O)CC#N)c2ccccc21,-0.8%,2%,8,1%
Fc1ccc(N2C(=S)SC(=Nc3ccccc3)C2=Nc2ccccc2)cc1,u,-12%,x,x
CCN1C(=O)CC(C(=O)Nc2ccc(F)cc2)SC1=Nc1cccc(OC)c1 (stereo not given),1.1%,13%,-10,-2%
COC(=O)c1cc(S(=O)(=O)NCC2CCN(Cc3ccc(F)cc3)CC2)c[nH]1,0.9%,1%,x,-4%&-1%
CCOc1ccc(NS(=O)(=O)c2ccc3[nH]c(=O)cc(C(=O)O)c3c2)cc1,3.0%,-6%,6,-1%
Nc1c(-c2ccccc2)c(CSc2nc3ccccc3[nH]2)nn1-c1ccc(Cl)cc1,0.3%,3%,6,u
CC(=O)c1cccc(NC(=O)Nc2ccc3c(c2)N(C)C(=O)CS3)c1,-1.0%,10%,5,24%
Cc1ccc(SCc2cc(=O)n3[nH]cnc3n2)cc1,-3.5%,-8%,2,-6%
CN1CCN(c2cc(=O)n(C3CCCCC3)c(=O)[nH]2)CC1,-1.3%,-19%,1,-1%
COc1ccc(N(C)C(=O)C2CCN(S(=O)(=O)c3cccc4nsnc34)CC2)cc1,-4.8%,25%,x,0%
NC(=O)CSc1nc2sc(-c3ccccc3)cc2c(=O)n1N,-0.1%,0%,-3,-27%
CCC(=O)Nc1ccc2c(c1)ncn2-c1ccccc1,-1.3%,1%,-12,-75%
CCOc1ccc(-c2nnc(-c3ccncc3)o2)cc1OCC,-5.4%,11%,2,-2%
CCN(CC)c1ccc(NC(=O)CSc2nc3nc(C)cc(C)c3c(=O)[nH]2)cc1,4.2%,-2%,x,x

(next part)
Molecule,Rango-impB inh,Rango dissoc inh,GLA inh pH 4.5,miR-21 FLuc
O=C(NCCN1CCCC1=O)C1CCC(=O)N(CCc2ccc(Cl)cc2)C1 (stereo not given),-3.1%,11%,x,0%
COc1cc(C(F)(F)F)c(C(=O)N(C)Cc2cc(Cl)cc(Cl)c2)cn1,0.8%,7%,-2,4%
COc1cccc(-c2csc(NNC(=O)c3cccs3)n2)c1,3.3%,9%,-5,0%
c1ccc2cc(CCCc3cc4ccccc4cn3)ncc2c1,1.8%,-2%,x,x
CCCCn1[nH]c(-c2ccccc2)cc1=O,-0.8%,12%,u,6%
COc1cccc(OCc2cc(C(=O)N(C)C3CCOCC3)no2)c1,-0.3%,-8%,x,-9%
CCCCCCNC(=O)c1c(O)c2cccc3c2n(c1=O)CCC3,-0.8%,-12%,-10,-7%
CC(C)C[C@H]1CN=C(Nc2ccccc2)N1CCCC1CCCCC1,-3.7%,1%,x,21%
O=C(C1COc2ccccc2O1)N1CCN(c2ccccc2O)CC1 (stereo not given),-2.3%,5%,x,x
COC(=O)c1c(C)[nH]c(C(=O)C(C)OC(=O)c2c(C)noc2C)c1C (stereo not given),-1.9%,7%,x,x
COC(=O)CN1C(=O)COc2ccc(S(=O)(=O)N3CCCC3)cc21,0.0%,-2%,x,-2%
COc1ccc(CC(=O)Nc2cc3oc4ccccc4c3cc2OC)cc1,6.0%,10%,-14,-85%
Cc1ccc(C(=O)N2CC(=O)Nc3ccc(F)cc3C2c2ccccc2)cc1[N+](=O)[O-] (stereo not given),2.6%,-4%,-5,-6%
O=C(CSc1nnc(Cc2cc(=O)[nH]c(=O)[nH]2)n1-c1ccc(F)cc1)N1CCCCC1,-1.6%,0%,0,-1%
Nc1cc2nc[nH]c2cc1N,u,-6%,5,-50%
O=C1/C(=C/c2ccccn2)SC(=S)N1c1cccc(O)c1,0.5%,12%,1,-14%
COc1ccc(NC(=S)NNC(=O)c2ccc(S(=O)(=O)N3CCOCC3)cc2)cc1,2.7%,-4%,-10,-7%
CCCOC(=O)C1[C@H]2C(=O)N(CCCOC)C[C@]23C=C[C@H]1O3 (stereo not given in full),-0.2%,1%,1,2%
Cc1nc(N2CCOCC2)c2c(C)c(C(=O)Nc3ccccc3Cl)sc2n1,-4.0%,-5%,8,-4%
O=C(NCc1ccco1)C1CN(S(=O)(=O)c2ccccc2)CCN1S(=O)(=O)c1ccccc1 (stereo not given),-6.3%,2%,-1,-5%
Cc1nc2ccccc2c(=O)n1/N=C/c1cn(-c2ccccc2)nc1-c1cccs1,2.3%,8%,-9,-16%
CCn1nc(C)c(NC(=O)/C=C/c2cnn(C)c2)c1C,0.0%,0%,0,-2%
COc1ccc(CCN2CC(C#N)=C3c4cc(OC)c(OC)cc4CCN3C2)cc1OC,u,-3%,7,3%
C=C(C)CN(CC)c1nc(N)c2c(N)nc3c(c2c1C#N)CC(=O)N3C12CC3CC(CC(C3)C1)C2,u,-27%,7,u
Cc1nn(C)cc1C(C(=O)NC1CCCCC1)N(C(=O)Cn1nnc2ccccc21)c1ccc(F)cc1 (stereo not given),0.6%,45%,4,-2%

Going on with the list.
Molecule,Rango-impB inh,Rango dissoc inh,GLA inh pH 4.5,miR-21 FLuc
Fc1ccc(NC(=S)NCCc2ccc(Cl)cc2)cc1,2.0%,9%,-5,-26%
O=c1c2sc(-c3ccccc3)cc2nc2n1CCCCC2,4.3%,-3%,2,-39%
CC(C)Oc1ccccc1-c1nc(SCC(=O)O)n[nH]1,1.0%,21%,8,-2%
COc1cc(C(=O)Nc2ccc(Cl)c(C(F)(F)F)c2)cc(OC)c1OC,8.2%,25%,-12,7%
CCOc1ccc(-n2c(=O)c3sccc3n(Cc3ccc(C)cc3)c2=O)cc1,-3.3%,19%,2[21.1 µM],5%
CC(C)C[C@@H](CN1CCCC1CN1C(=S)NC[C@@H]1Cc1ccc(O)cc1)N1C[C@H](Cc2ccccc2)N(CC2CCCCC2)C1=S (stereo not given in full),5.9%,-5%,x,x
Cn1ncc(Cl)c1C(=O)Nc1ccc2c(c1)CCC2,2.4%,3%,x,-55%
Cc1cc(C)n2nc(SCC(=O)NC(=O)c3ccccc3Cl)nc2n1,0.1%,-9%,x,x
CN1CCN(CCC2Oc3cc([N+](=O)[O-])ccc3NC2=O)CC1 (stereo not given),-2.1%,-14%,-2,-3%
Cc1cccc2cc(C#N)c(SCC(=O)N3CCC(C)CC3)nc12,-7.8%,-10%,2,-17%
COc1ccc2[nH]c3c(c2c1)CCN1C(=O)C(CC(=O)NCCN2CCOCC2)C[C@H](C(=O)N2CCOCC2)[C@@]31C (stereo not given in full),0.9%,-7%,x,x
Cc1n[nH]c(=S)n(NC(=O)/C=C/C(=O)Nn2c(=S)[nH]nc(C)c2=O)c1=O,u,u,1,-3%
CC(C)(C)OC(=O)N1CCC(CNC(=O)c2ccc(F)cc2)CC1,-3.4%,15%,6,7%
Cc1ccc(S(=O)(=O)CCC(=O)OCC(=O)NC(N)=O)cc1,-0.2%,-18%,-14,0%
Nc1nonc1-n1nnc(C(=O)N/N=C/c2ccc(OCc3ccccc3)cc2)c1CN1CCCCC1,-0.7%,-8%,x,-15%
C1=CN2CCC1C(c1ccccc1)C2 (stereo not given),u,-10%,6,-2%
CCOc1ccc2oc(C(=O)NCC(c3ccco3)N(C)C)c(C)c2c1 (stereo not given),0.0%,-24%,x,x
CCOc1ccccc1NC(=O)CN1C(=O)C(=O)N(Cc2ccco2)C1=O,-4.3%,22%,1,0%
CCN(CC)C(=O)CCC(=O)Nc1ccc(C(=O)OC)cc1,0.2%,3%,-9,0%
Cc1cc(NC(=O)CSCc2nc(-c3cccc(F)c3)oc2C)no1,-4.9%,14%,-2,-2%
CCOC(=O)c1ccc(Nc2c(CC)c(C)nc3ncnn23)cc1,4.6%,-2%,-8,-8%
O=C(NC(=S)Nc1cc(Cl)ccc1N1CCOCC1)c1ccc(-c2cccc(Cl)c2)o1,2.4%,5%,-3,-11%
COC(=O)c1nc(-n2nc(C)cc2C)ccc1Cl,3.9%,-1%,2,-4%
CCOC(=O)C1(Cc2cccc(F)c2)CCN(C(=O)Cc2cccnc2)CC1,-1.2%,2%,0,-1%
CN(C)CCCNC(=O)c1cc(C(=O)c2ccc(F)cc2)c[nH]1,-6.2%,4%,-5,1%

Continued.
Molecule,Rango-impB inh,Rango dissoc inh,GLA inh pH 4.5,miR-21 FLuc
COc1ccc(-c2[nH]c3ccccc3c2SCCN)cc1,6.0%,-1%,2,-7%
COc1cccc(CC2(CO)CCCN(S(=O)(=O)N(C)C)C2)c1 (stereo not given),1.3%,1%,5,0%
O=C(Cn1cc(C(=O)C2CC2)c2ccccc21)NC1CCCC1,-3.6%,4%,3,-12%
CCOC(=O)C(C)Sc1nc2ccccc2c(=O)n1CC1CCCCC1 (stereo not given),0.9%,10%,-2,7%
CCc1nnc(NC(=O)CCC(=O)NC2CCCc3ccccc32)s1 (stereo not given),0.6%,8%,6,-3%
COc1cc(CN2CCNC(=O)C2CC(=O)N(Cc2nccn2C)C(C)C)cc(OC)c1 (stereo not given),-3.3%,-24%,4,-4%
COc1ccc(NC(C)=O)cc1S(=O)(=O)Nc1ccc(C(=O)N2CCCC2)cc1,-3.7%,1%,9,6%
O=C(c1ccc(Br)o1)N1CCN(Cc2ccccc2Cl)CC1,1.3%,-2%,x,-6%
Cc1ccc(NC(=O)c2ccc(S(=O)(=O)N3CCCC3)cc2)cc1,-2.2%,-6%,x,x
CCN(c1ccccc1)S(=O)(=O)c1ccc(C(=O)Nc2nnc(-c3ccco3)o2)cc1,5.7%,-16%,5,u

An excerpt from above in order of the GLA inh pH 4.5 value, smallest number first.
molecule | GLA inh pH 4.5
COc1ccc(-c2[nH]c3ccccc3c2SCCN)cc1 | 2
COc1cc(CN2CCNC(=O)C2CC(=O)N(Cc2nccn2C)C(C)C)cc(OC)c1 (stereo not given) | 4
COc1ccc(NC(C)=O)cc1S(=O)(=O)Nc1ccc(C(=O)N2CCCC2)cc1 | 9
